Assay outcomes: PubChem BioAssay, National Center for Advancing Translational Sciences (NCATS)
TRPV1 PAM: HTS Assay for Compounds that Act as Potentiators of the Vanilloid Receptor 1; 320,000 tested, 0.02% active; Transient receptor potential cation channel subfamily V member 1 (Homo sapiens), Q8NER1; TRPV1-expressing cells, Fluo-8 calcium influx, capsaicin EC20 potentiation; host cell line not named in the record; control for the full effect not named in the record; AID 540277, 2011; potentiation, % at 8.33 µM; active means potentiation above 80%; inconclusive means 30% to 80%; inactive means below 30%; also: 0% is about no effect
Target sequence (Q8NER1 whole entry, looked up): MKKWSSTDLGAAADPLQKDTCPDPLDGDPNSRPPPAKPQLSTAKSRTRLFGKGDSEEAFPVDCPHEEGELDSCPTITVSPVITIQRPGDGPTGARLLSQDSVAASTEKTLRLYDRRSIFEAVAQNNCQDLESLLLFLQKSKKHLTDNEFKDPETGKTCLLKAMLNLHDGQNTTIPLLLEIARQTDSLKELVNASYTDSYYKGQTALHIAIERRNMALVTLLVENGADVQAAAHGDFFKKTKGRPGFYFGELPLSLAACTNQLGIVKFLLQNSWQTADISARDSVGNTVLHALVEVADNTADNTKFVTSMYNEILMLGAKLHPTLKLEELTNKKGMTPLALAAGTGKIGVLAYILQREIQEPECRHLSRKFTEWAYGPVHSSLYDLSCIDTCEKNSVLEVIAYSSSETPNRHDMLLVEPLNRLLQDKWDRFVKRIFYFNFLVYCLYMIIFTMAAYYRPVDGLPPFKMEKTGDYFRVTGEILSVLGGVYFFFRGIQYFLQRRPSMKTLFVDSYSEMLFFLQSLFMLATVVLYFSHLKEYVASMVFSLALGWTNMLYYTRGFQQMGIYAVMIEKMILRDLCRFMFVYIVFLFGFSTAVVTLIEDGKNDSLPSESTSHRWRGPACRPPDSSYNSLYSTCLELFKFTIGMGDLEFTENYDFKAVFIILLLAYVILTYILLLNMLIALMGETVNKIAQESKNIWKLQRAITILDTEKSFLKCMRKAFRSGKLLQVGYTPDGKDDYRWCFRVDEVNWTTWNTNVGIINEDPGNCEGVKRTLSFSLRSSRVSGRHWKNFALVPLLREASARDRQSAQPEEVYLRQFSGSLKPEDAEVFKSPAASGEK
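Fluo-8 calcium influx in TRPV1-expressing cells, kinetic read (ex 480/em 520 nm). Compound added and read 3 min for agonist activity, followed by capsaicin at EC20 final and 2 min further read for enhancement.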
Sfp PPTase inh: qHTS Assay for Inhibitors of Bacillus subtilis Sfp phosphopantetheinyl transferase (PPTase); Potency, µM, inactives show max response, negative = inhibition, actives largely listed as inhibitors; 310,000 tested, 3.5% active; Biochemical Sfp PPTase activity, qHTS; 4'-phosphopantetheinyl transferase ffp (Bacillus subtilis), Q9F4F7; AID 1490, 2009; active = well fitted inhibition curve with a large enough effect; inconclusive = small, poorly fitted or top-dose-only effect, or another doubt; inactive = no such curve, though single readings can be large or run the other way;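 also: the enzyme is Sfp with the accession as filed and its product quenches rhodamine fluorescence; potency is read from the fitted curve at half-maximal effect; 0% = enzyme reaction without inhibitor and -100% = no enzyme wells; top concentration of the series not given in the record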
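After 15 min at room temperature with compound, 15 nM Sfp received 5 uM rhodamine-CoA plus 12.5 uM BHQ-2-ybbR (50 mM Hepes pH 7.6, 10 mM MgCl2). Rate came from the fluorescence difference over 30 min, ex 525/em 598 nm.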
* = called active by the depositor; i = inactive; ? = inconclusive; . = not tested or not shown; & = joins results of further samples. Not all compounds are listed; the hit share may differ from the screen's.

The opening 2 entries (preview)
1: CC(C)[C@]1(c2ccccc2)ON(c2ccccc2C(F)(F)F)C1=O
2: COC(=O)c1ccc(NC(=O)c2ccc3c(c2)NC(=O)C2CCCN32)cc1 (stereo unspecified)
entry no.,1,2
TRPV1 PAM,-11.4,-22.5
Sfp PPTase inh,.,.

Results (from the top)
1: CC(C)[C@]1(c2ccccc2)ON(c2ccccc2C(F)(F)F)C1=O
2: COC(=O)c1ccc(NC(=O)c2ccc3c(c2)NC(=O)C2CCCN32)cc1 (stereo unspecified)
3: N#Cc1cc2sc3nc4ccccc4n3c2cc1C#N
4: COc1ccccc1C(=O)Nc1cccc(-c2cn3ccsc3n2)c1
5: Cc1ccc(S(=O)(=O)N2CCN(C3CCC(c4ccccc4)CC3)CC2)cc1 (stereo unspecified)
6: CSC1=Nc2sc3c(c2C2=NCCN12)CCCC3
7: COc1ccc2nc3cc(Cl)ccc3c(Nc3cc(CN4CCCC4)c(O)c(CN4CCCC4)c3)c2n1
8: CCCCCCC(=O)N(O)C1CC(=O)N(c2ccccc2)C1=O (stereo unspecified)
entry no.,1,2,3,4,5,6,7,8
TRPV1 PAM,-11.4,-22.5,12.8,7.8,-0.7,11.1,2.9,24.0
Sfp PPTase inh,.,.,15.4%,-5.7%,8.4%,-18.8%,-16.0%,7.08µM*

9: COc1ccc(N2CCN(C(=O)c3ccc4c(c3)NC(=O)C(CSCc3c(F)cccc3Cl)N4)CC2)cc1 (stereo unspecified)
10: CCCCCCN(C(=O)CCCCCN1C(=O)NC(c2ccc(-c3ccccc3)cc2)C(C(=O)OCc2ccccc2)=C1C)C(C(=O)NCCCC)c1ccc(-c2ccccc2)cc1 (stereo unspecified)
11: CCn1c(C)nc2cc(C(=O)N=Nc3c(O)[nH]c4c(C)cc(C)cc34)ccc21
12: Cc1nc2ccccc2c(=O)n1/N=C1\C(=O)N(C)c2ccccc21
13: COc1ccc(C2c3c(oc4c(C)cc(C)cc4c3=O)C(=O)N2Cc2cccnc2)cc1OC (stereo unspecified)
14: COc1ccccc1NC(=O)Nc1nnc(CC(=O)Nc2ccccc2)s1
15: CCC1SC2=NCN(c3ccccc3)CN2C1=O (stereo unspecified)
16: CCCC(=O)NC(Nc1ccccc1F)C(Cl)(Cl)Cl (stereo unspecified)
entry no.,9,10,11,12,13,14,15,16
TRPV1 PAM,2.6,?,-0.6,-1.5,3.3,5.9,-5.2,-14.8
Sfp PPTase inh,-26.9%,1.2%&27.5%,8.6%,11.9%,18.9%,-3.3%,5.0%,8.1%

Reprinted at random: two compounds from above
16: CCCC(=O)NC(Nc1ccccc1F)C(Cl)(Cl)Cl (stereo unspecified)
10: CCCCCCN(C(=O)CCCCCN1C(=O)NC(c2ccc(-c3ccccc3)cc2)C(C(=O)OCc2ccccc2)=C1C)C(C(=O)NCCCC)c1ccc(-c2ccccc2)cc1 (stereo unspecified)
entry no.,16,10
TRPV1 PAM,-14.8,?
Sfp PPTase inh,8.1%,1.2%&27.5%

The listing continues.
17: CCOc1cc(/C=N/NC(=O)c2cc(C)[nH]n2)ccc1OC(=O)c1ccc([N+](=O)[O-])cc1
18: C=CCn1c(=N)c(C(=O)OC)cc2c(=O)n3cccc(C)c3nc21
19: COc1ccc(/C(O)=C2\C(=O)C(=O)N(CCCN(C)C)C2c2ccccc2F)cc1Cl (stereo unspecified)
20: O=C(CN1C(=O)c2ccccc2C1=O)Oc1ccc(F)cc1
21: CCc1ccc(N2CCCn3c2nc2c3c(=O)n(CCN3CCOCC3)c(=O)n2C)cc1
22: C=C1[C@@H](C)C2[C@H](Cc3ccccc3)NC(=O)[C@]23OC(=O)CC[C@H](O)CCC[C@H](C)C/C=C/[C@H]3[C@@H]1O (stereo partly specified)
23: O=C(O)C1CC=CCC1C(=O)Nc1cccc(Cl)c1Cl (stereo unspecified)
24: CC(C)C1=CC2=CCC3C(C)(C(=O)O)CCCC3(C)C2CC1 (stereo unspecified) (tested in a mixture with another compound)
entry no.,17,18,19,20,21,22,23,24
TRPV1 PAM,-17.3,8.0,-9.1,-4.8,-5.0,-8.3,-0.7,-10.2
Sfp PPTase inh,10.6%,7.3%,8.2%,0.7%,16.3%,-3.3%,17.6%,2.7%

25: O=C(/C=C/c1ccc([N+](=O)[O-])cc1)/C=C/c1ccco1
26: O=C(N/N=C1/CCCc2ccccc21)c1cc([N+](=O)[O-])cc([N+](=O)[O-])c1
27: C#Cc1ccc([C@@H]2C=C(C(=O)N3CCN(Cc4ccccc4)CC3)O[C@H](OCCCCO)C2)cc1
28: Nc1nc(CC(=O)CSc2ccc(Cl)cc2)nc(Nc2ccc(F)cc2)n1
29: CC1(C)NC(=O)N(CCCCOc2ccccc2[N+](=O)[O-])C1=O
30: COc1ccc(N2CCn3c2nc2c3c(=O)n(CCN3CCOCC3)c(=O)n2C)cc1
31: Cc1nc(N2CCN(C(c3ccccc3)c3ccccc3)CC2)nc2c1C(=O)CCC2
32: CC(C)(C)c1ccc(-c2nc(O)c(CC(=O)O)s2)cc1
entry no.,25,26,27,28,29,30,31,32
TRPV1 PAM,2.4,-5.8,9.3,4.0,6.9,2.9,5.3,-0.7
Sfp PPTase inh,50.1µM*,15.4%,0.4%,-12.3%,2.6%,7.3%,14.7%,?

33: COc1ccc(/C=C2\CCCc3c2nc2ccccc2c3C(=O)O)cc1OC
34: Cc1ccc(-c2c(=O)n(OCc3ccccn3)c3ccccc3[n+]2[O-])cc1
35: Cc1ccc(C(=O)CCC(=O)O)cc1
36: Cc1cc(C)n(-c2nc(SCC(=O)NCC3CCCO3)c3c4c(sc3n2)CCCC4)n1 (stereo unspecified)
37: Cc1ccc(C(=O)N2CCN(c3ncnc4c(-c5ccccc5)nsc34)CC2)cc1
38: O=C1OC2(CCCCC2)CC2=C1C1O[C@](CCCCN3C(=O)c4ccccc4C3=O)(Cc3ccccc31)O2
39: CC(C)c1ccccc1NC(=O)c1ccc(CN(c2ccccc2)S(=O)(=O)c2ccccc2)cc1
40: O=C(C1CCN(c2ncnc3c2sc2cccc(F)c23)CC1)N1CCCC1
entry no.,33,34,35,36,37,38,39,40
TRPV1 PAM,-7.6,0.2,-6.1,-6.7,-0.8,i,-24.2,-14.5
Sfp PPTase inh,35.5µM*,2.4%,-1.4%,?,27.2%,7.7%,-21.8%,-5.0%

41: Cc1ccc(-n2c(-c3ccccc3)cc(/C=N/NC(=O)CC#N)c2-c2ccccc2)cc1
42: c1cnc(N2CCN(c3ncnc4c3oc3ccccc34)CC2)nc1
43: NN=C1c2cc([N+](=O)[O-])ccc2-c2ccc([N+](=O)[O-])cc21
44: NS(=O)(=O)c1ccc(CCNC(=O)CCCCCNc2nc(=S)[nH]c3ccccc23)cc1
45: COCC(=O)Nc1ccc(S(=O)(=O)Nc2ncccn2)cc1
46: COC(=O)c1ccc(C2c3c(oc4cc(C)c(C)cc4c3=O)C(=O)N2CCCN(C)C)cc1 (stereo unspecified)
47: COC(=O)c1cc(NC(=O)/C=C/c2ccccc2)ccc1O
48: COC(=O)c1ccc(C(=O)OC)c(N)c1
entry no.,41,42,43,44,45,46,47,48
TRPV1 PAM,3.9,-12.8,6.9,0.4,4.9,-4.5,-7.2,8.9
Sfp PPTase inh,-4.9%,13.0%,-26.3%,3.9%,17.1%,1.1%,15.6%,18.1%

49: COc1ccc(C2CC(c3ccc(C)cc3)=NN2C(=O)CCC(=O)O)cc1OC (stereo unspecified)
50: CC(C)CN1C(=O)/C(=C/c2c(N3CCc4ccccc4C3)nc3ccccn3c2=O)SC1=S
51: Cc1nc2sccn2c(=O)c1CCN1CCC(=C(c2ccccc2)c2ccc(F)cc2)CC1
52: Cc1nc2ccccc2c2oc(C(=O)N3CCc4ccccc43)cc12
53: CC(C)N(Cc1nnc(-c2ccccc2Cl)o1)C(=O)c1cccc(C#N)c1
54: O=C(NCc1ccc(/C=c2\sc3n(c2=O)CCN=3)o1)C(=O)Nc1ccccc1
55: Cc1ccccc1OCCOc1ccccc1C=C(C#N)C#N
56: Cn1c(SCC(=O)NNC(=S)Nc2ccccc2)nnc1-c1ccncc1
entry no.,49,50,51,52,53,54,55,56
TRPV1 PAM,1.1,-10.7,-0.6,-8.7,-2.1,13.9,19.5,-0.2
Sfp PPTase inh,11.1%,4.0%,-14.8%&-17.8%,16.3%,11.0%,22.4µM*,-23.4%,8.3%

57: CC1=C(C(=O)Nc2ccccc2)C(c2ccco2)C(C#N)=C(SCc2ccccc2)N1 (stereo unspecified)
58: Cc1cc(NC(=O)CN2CCN(Cc3ccccc3)CC2)nc2c1c(=O)oc1ccccc12
59: CCOc1ccc(NC(=S)N2CCn3c(nc4ccccc43)C2)cc1
60: O=C1CSC(c2ccccc2)N1c1nnc(C23CC4CC(CC(C4)C2)C3)s1 (stereo unspecified)
61: CC(C)N1CCC2(CC1)C(C#N)=C(N)NC(S)=C2C#N
62: C/C(=C1/C(=O)N(c2ccc([N+](=O)[O-])cc2)N=C1c1ccccc1)N(C)C
63: Cc1ccc2nc(NC3=NCN(CCc4ccccc4)CN3)nc(C)c2c1
64: Cc1cc(C)c(S(=O)(=O)N2CCN(CCN3C(=O)c4cccc5cccc(c45)C3=O)CC2)cc1[N+](=O)[O-]
entry no.,57,58,59,60,61,62,63,64
TRPV1 PAM,0.6,-6.2,20.9,14.5,-12.0,-4.1,12.1,-13.8
Sfp PPTase inh,3.7%,-2.7%,9.5%,-4.2%,-9.2%,12.9%,6.2%,4.2%

Part of the list above, with bars between the fields:
cpd | Compound | TRPV1 PAM | Sfp PPTase inh
35 | Cc1ccc(C(=O)CCC(=O)O)cc1 | -6.1 | -1.4%
36 | Cc1cc(C)n(-c2nc(SCC(=O)NCC3CCCO3)c3c4c(sc3n2)CCCC4)n1 (stereo unspecified) | -6.7 | ?
37 | Cc1ccc(C(=O)N2CCN(c3ncnc4c(-c5ccccc5)nsc34)CC2)cc1 | -0.8 | 27.2%

Following part.
65: c1ccc(-c2nc(-c3cccnc3)n[nH]2)cc1
66: CN(C)CC#CCCCCCCC#CCN(C)C
67: COc1ccc(C(=O)N(C)Cc2ccccc2)cc1Br
68: COC(=O)c1c(N2C(=O)[C@H]3[C@@H](C2=O)[C@]2(C(=O)Nc4ccccc42)N2CCC[C@@H]32)sc(C)c1C
69: COC(=O)c1ccccc1NC(=O)c1c(O)c2cccc3c2n(c1=O)CCC3
70: CC(=O)C1=C(O)C(=O)N(Cc2cccnc2)C1c1ccc(C)cc1 (stereo unspecified)
71: O=C1c2oc3ccc(Br)cc3c(=O)c2C(c2cccnc2)N1Cc1ccco1 (stereo unspecified)
72: CCSc1ncnc2c1sc1nc(-c3ccco3)c3c(c12)CC(C)(C)OC3
entry no.,65,66,67,68,69,70,71,72
TRPV1 PAM,5.3,9.4,?,-29.2,11.8,-4.6,-2.4,24.9
Sfp PPTase inh,13.6%,2.1%,-15.9%,-7.1%,16.7%,4.8%,?,-33.1%

73: O=C(NC1CCCCCC1)c1c(O)c2cccc3c2n(c1=O)CCC3
74: O=C(O)c1nn(-c2ccccc2-c2n[nH]c(=O)[nH]c2=O)c(=O)[nH]c1=O
75: O=C(CC(=O)NC1CCCCC1)N/N=C/c1ccccc1F
76: Cc1cc(C)nc(-n2nc(C)c3c(C)c(C)c(C)nc32)n1
77: CC(=O)OCC1O[C@@H](O[C@@H]2C[C@H]3C(C)(C)[C@H](OC(C)=O)CC[C@]3(C)[C@H]3CC[C@]45C[C@]4(CC[C@H]5[C@@H](C)C[C@@H](O)[C@H](O)C(C)(C)O)[C@@]32C)[C@H](O)[C@@H](O)[C@@H]1O (stereo partly specified)
78: Fc1ccccc1-c1n[nH]c(=S)n1C1CC1
79: COc1ccc(/C=C(\C#N)C(=O)OCC(=O)NCc2ccc(Cl)cc2)cc1
80: CCN1CCc2c(OCC(=O)N3CCc4ccccc43)cccc2C1=O
81: Cc1oc(-c2ccccc2Cl)cc1-c1nn2c(-c3ccco3)nnc2s1
82: O=C(Nc1nc2c(ccc3ccccc32)s1)c1cc([N+](=O)[O-])ccc1N1CCOCC1
83: CCOC(=O)N1c2ccccc2C=CC1OCC (stereo unspecified)
entry no.,73,74,75,76,77,78,79,80,81,82,83
TRPV1 PAM,-6.0,19.7,18.2,-6.4,-3.3,-3.9,5.8,2.9,9.6,1.5,1.4
Sfp PPTase inh,-0.6%,-24.8%,20.2%,0.2%,?,-17.4%,-19.0%,10.9%,-0.1%,?,17.9%
